# High-throughput results from PubChem.
# Calb biofilm kill = clotrimazole potentiators killing C. albicans biofilm, primary screen, 4-compound mixtures. C. albicans biofilm persisters + clotrimazole, fluorescence viability; primary screen in compound mixtures of four per well. inhibition, % at 7.6 µM. 120,000 compounds, 0.02% hits;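 active = inhibition above 30.3% in the primary screen of four-compound pools, then above 30% when the compound was retested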;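 note: compounds exposed to preformed 24 h biofilms for 48 h; the number belongs to the whole pool; some results filed as inactive read as strong as hits; inactives centre near 12; 0% = biofilm with clotrimazole alone and 100% = kill control; retested singly at about 60 µM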
#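 Incubation: 24 h biofilm formation, then 48 h compound exposure, 37 °C | Material: C. albicans biofilms | Buffer or medium: RPMI/MOPS medium, pH 7.0 | Measured by: 2-h Alamar Blue fluorescence, 535/590 nm excitation/emission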
# An asterisk follows results filed as active. This is a subset, so the mix of outcomes need not match the whole.
SMILES,Calb biofilm kill
CC1CC(C)CN(C(=O)c2ccc(N3CC4CC(C3)c3cccc(=O)n3C4)c([N+](=O)[O-])c2)C1 (centres undefined),16.4
CCOc1ccc(C(=O)Nc2cc(S(=O)(=O)Nc3ccccc3Cl)ccc2N2CCOCC2)cc1,10.9
CCN(CC)S(=O)(=O)c1cccc(C(=O)N[C@H](C(=O)Nc2nc3ccc(F)cc3s2)C(C)C)c1,7.8
CC(=O)C1=NOC(CNc2ncc(C(F)(F)F)cc2Cl)C1 (centres undefined),6.9
CCOC(=O)CSc1[nH]c2cc(OC)ccc2c1[N+](=O)[O-],24.1
CCOC(=O)C1CCN(C(=O)c2ccccc2NC(=O)c2ccc(Cl)cc2)CC1,10.9
CCOC(=O)c1cc(C(=O)NCc2ccc(Cl)cc2Cl)nn1C,5.4
CCN(CC)S(=O)(=O)c1ccc(N2CCOCC2)c(NC(=O)COc2ccccc2C#N)c1,-6.2
Cc1cc(C(=O)Nc2cnc3ccccc3c2)ccc1[N+](=O)[O-],15.7
COCC1CCN(Cc2cn(C)nc2-c2cccc(Cl)c2)C1 (centres undefined),19.9
COc1ccc(OC)c(NC(=O)C2CCCCC2)c1,16.0
O=c1cc(CNc2cc(C(F)(F)F)cc(C(F)(F)F)c2)nc2sccn12,-6.5
CCCCN(C(=O)CSc1nncn1-c1ccccc1OC)c1c(N)n(Cc2ccccc2)c(=O)[nH]c1=O,15.0
CCc1nc(N[C@H](C(=O)O)C(C)C)c2oc3ccccc3c2n1,18.7
COC(=O)c1cc(Nc2cc(C)c3c(O)cccc3n2)cc(C(=O)OC)c1,17.9
CSc1ncccc1C(=O)N1CCCC(C(=O)c2cc(F)ccc2F)C1 (centres undefined),14.1
CC1Cc2ccccc2N1CC(=O)NC(=O)NCc1ccccc1 (centres undefined),14.0
COc1ccc(C(Nc2ccccn2)c2c(NC(=O)c3ccco3)sc(C)c2C)cc1OC (centres undefined),-3.0
Cc1ccc(NC(=O)Nc2ccc(F)c(Cl)c2)cc1,7.0
c1ccc(-c2ccc(OCCCNC3CCCC3)cc2)cc1,-0.5
Cn1nc(-c2ccc(C(=O)Nc3ccc(F)cc3)cc2)c2ccccc2c1=O,9.9
COC(=O)c1ccccc1NC(=S)NC(=O)c1ccccc1F,14.3
CN(C)S(=O)(=O)c1ccc(Cl)c(NC(=O)COC(=O)c2ccc(O)cc2)c1,5.3
Cc1cc(-c2ccccc2)c2c(=O)[nH][nH]c2n1,5.6
O=[N+]([O-])c1cc(/C=N/Nc2nc(N3CCCCC3)nc(N3CCCCC3)n2)ccc1O,12.6
CCCSc1nnc(CNC(=O)C23CC4CC(CC(C4)C2)C3)n1Cc1ccccc1,10.0
COc1cc2cc(Oc3ccc4ccc(=O)oc4c3)c(=O)oc2cc1OC(=O)/C=C/c1ccccc1,11.1
O=C(CSc1ncccn1)NC(=O)NCc1ccco1,0.5
O=C(NCc1cccs1)c1ccccc1[N+](=O)[O-],18.6
CN(C)N1C(N)=C(C#N)C(c2cccs2)C2=C1CC(C)(C)CC2=O (centres undefined),14.4
CC(=O)Nc1ccc2c(CN3C(=O)NC(C)(c4ccc(C)cc4)C3=O)cc(=O)oc2c1 (centres undefined),6.7
O=C(CSc1nnc(-c2ccc(F)cc2)c2ccccc12)Nc1cccc(Cl)c1,15.4
Cn1c2ccccc2c2cc(/C=C(\NC(=O)c3ccccc3)C(=O)NCC(=O)O)ccc21,15.6
O=C(O)CCCC(=O)N1CCc2cc(S(=O)(=O)NCc3ccccc3)ccc21,-4.5
OC1(c2ccccc2)CN(c2ccccc2)C2=[N+]1CCS2 (centres undefined),6.6
CC(C)C[C@H](CO)Nc1nc(Nc2cccc(Cl)c2)c2ncn(C(C)C)c2n1,16.0
O=C(Cc1ccccc1)Nc1ccc(Br)c(Cl)c1,7.3
Cc1nc(NC(=O)C2CC2)sc1C(=O)NC1CCCCC1,21.8
CCCc1[nH]nc2c1C(c1cn[nH]c1-c1ccc(F)cc1)C(C#N)=C(N)O2 (centres undefined),16.2
O=C(OCC(=O)N1CCCC1)c1ccc(NS(=O)(=O)c2cccs2)cc1O,14.6
CC(c1ccccc1)n1c(S(=O)(=O)O)nc2ccccc21 (centres undefined),5.5
O=[N+]([O-])c1ccc(-c2ncc(-c3ccc(Br)cc3)o2)cc1,15.4
O=C(NNC(=S)Nc1ccccc1Cl)C1CC1,16.6
COC(=O)C1=C(C(=O)OC)[C@@H]2Nc3ccccc3[C@@]23C[C@@H](C(=O)OC)N(C(=O)c2ccc(Br)cc2)C3=N1,13.4
CC(=O)/C(=N/Nc1ccccc1[N+](=O)[O-])N1CCCc2ccccc21,20.6
CC(C)=NN1C(c2nonc2N)=NOC1(C)C,19.4
Cc1ccc(/C=N/n2cnc3sc(C)c(C)c3c2=O)o1,16.0
CCNC(=S)N1CCC(C(=O)c2ccc3c(c2)OCCO3)CC1,11.2
COc1cccc(/C=N/n2nnnc2N)c1,18.9
CC(C)NC(=O)NC(=O)COC(=O)C1(C)CC1(Cl)Cl (centres undefined),17.6
COc1ccc(/C=N/n2cnn(Cc3ccccc3Cl)c2=S)cc1,-4.4
Cc1ccc(C(=O)CSc2nnc(C)s2)cc1,16.7
CCc1c(C)nc2ncnn2c1N1CCC(C(=O)NCc2cccs2)CC1,12.1
Cn1c(SCC(=O)c2ccccc2)nnc1-c1ccccn1,23.5
O=C(NCc1ccccc1)Nc1cccn(Cc2ccc(F)cc2)c1=O,8.0
COc1ccc(C(CC(=O)NCc2ccccc2)Sc2n[nH]c(-c3ccccc3)n2)cc1 (centres undefined),16.6
Cc1ccc(NC(=O)c2nc[nH]c2C(=O)N2CCC(C)CC2)cc1,14.2
O=C(COC(=O)/C=C/c1ccccc1)Nc1ccccc1Br,24.5
CC1CN(C(=O)C2CCCC2)C(C)CN1C(=O)C1CCCC1 (centres undefined),11.6
CCOc1ccc(NC(=O)CSc2nc3[nH]ncc3c(=O)n2-c2ccccc2OC)cc1,1.5

# The listing continues:
SMILES,Calb biofilm kill
CC(=O)N1CCN(CC(=O)Nc2sccc2C#N)CC1,11.8
COc1cc(/C=C2\SC(=S)N(N3CCOCC3)C2=O)cc(OC)c1OC,0.5
CCC12CN3CC(CC)(CN(C1)C31C(=O)N(C)c3ccc(C)cc31)C2=O (centres undefined),6.6
COC(CNC(=O)c1coc2nc3ccccc3nc12)OC,22.6
O=C(NCc1cccc(Cl)c1)C1CCCO1 (centres undefined),-3.2
Cc1ccc(NC(=S)N(CCCN2CCN(C)CC2)Cc2cccs2)cc1,6.1
Cc1ccc(C(=O)NNc2ncnc3ccccc23)cc1,25.7
Cn1cc(CN2CCC(C(O)c3cccs3)CC2)c(-c2ccccc2F)n1 (centres undefined),-7.5
c1ccc(C[n+]2c(-c3ccccc3)csc2Nc2ccccc2)cc1,2.5
Cc1cc(=O)n2c(-c3ccc(Cl)cc3)csc2n1,9.2
CN(Cc1ccccc1)S(=O)(=O)c1ccc2c(c1)NC(=O)CC(=O)N2,0.3
CC(C)(C)S(=O)(=O)/C(C#N)=C/Nc1ccccn1,12.8
CCNC(=O)COC(=O)CCC(=O)c1ccc(F)cc1,25.4
CC1=C(C(=O)OCc2ccccc2)C(c2ccc(-c3ccccc3)cc2)NC(=O)N1CCCCCC(=O)O (centres undefined),16.7
NC(=O)c1cnn(-c2ccc3ccccc3c2)c1N,14.2
N#C/C(=C\c1c(Cl)cccc1Cl)c1nn(-c2ccccc2)c(-n2cccc2)c1C#N,6.7
CCOc1ccccc1N1CCN(Cc2cn[nH]c2-c2ccc(F)cc2)CC1,7.0
COc1cccc(C(=O)NNC(=O)c2ccccc2-n2cccc2)c1,17.0
C/C(CCc1ccccc1)=N/NC(=O)C(=O)NCc1ccccc1,-2.4
CCCCOCCCNC(=O)CC(C)c1ccccc1 (centres undefined),0.2
O=C(Nc1cccc(Cl)c1)Nc1cc(S(=O)(=O)N2CCOCC2)ccc1N1CCCC1,-15.1
O=C(CSc1n[nH]c(=O)n1C1CC1)N1N=C(c2ccc(Cl)cc2)CC1c1ccco1 (centres undefined),10.8
COc1ccc(CNC(=O)COC(=O)/C=C/c2cccs2)cc1,15.9
N#CC1=C2N=C(N)c3ccccc3N2C2=C(C(=O)CCC2)C1c1ccc(F)cc1 (centres undefined),23.9
NC(=S)Nc1nc2ccccc2s1,14.2
O=C(NCCCN1CCN(CCCNC(=O)c2cccc([N+](=O)[O-])c2)CC1)c1cccc([N+](=O)[O-])c1,11.8
COc1cc(/C=N/NC(=O)c2ccc(-n3cccc3)cc2)ccc1O,11.0
CC(C)(C)SCCNC(=O)Nc1ccccc1,8.7
CC1(c2ccc(OC(F)F)cc2)NC(=O)N(/N=C/c2c(O)ccc3ccccc23)C1=O (centres undefined),10.6
COc1ccc(C(=O)/C=C/C(=O)N(CC(=O)NC2CCCCC2)Cc2ccc(F)cc2)c(O)c1,0.4
O=C(O)/C=C\C(=O)Nc1cccc(C(=O)Nc2cccc(O)c2)c1,16.7
O=C(Nc1cnn(Cc2ccc(F)cc2)c1)c1cc(-c2ccco2)on1,10.7
Cc1ccc(CN2C(=O)N/C(=C/c3cc(C)n(-c4ccccn4)c3C)C2=O)cc1,2.4
Cc1cc(C)c(/C=C(\C#N)C(N)=S)c(C)c1,4.9
CCc1ccc2c(c1)/C(=N/OC)C(=O)N2,3.0
O=C(CC(=O)N/N=C/c1ccccc1)NCc1ccccc1,12.1
O=[N+]([O-])c1ccc(C(=S)N2CCC(Cc3ccccc3)CC2)cc1,0.9
O=C(c1cccs1)N1N=C(c2ccc(O)cc2)CC1c1ccccc1 (centres undefined),5.4
Cc1csc(NC(=O)c2cc(-c3ccco3)nc3ccccc23)n1,12.9
Cc1ccc2cccc(Oc3ncnc4scc(-c5ccccc5)c34)c2n1,5.6

# Additional entries follow:
structure	Calb biofilm kill
Cc1ccc(O)c(C(=O)c2cc(C#N)c(=O)n(-c3nccs3)c2)c1	2.6
O=C(NCCc1ccccc1)C(c1ccncc1)N(C(=O)c1csnn1)C1CC1 (centres undefined)	8.9
COc1ccccc1C(=O)COC(=O)c1ccccc1OCC(=O)Nc1ccc(SC(F)F)cc1	8.8
CN(Cc1ncc[nH]1)Cc1cn(-c2ccccc2)nc1-c1ccc2c(c1)OCO2	14.4
O=C(COC(=O)c1ccc2ncsc2c1)NC(=O)c1ccccc1	15.3
COc1ccc(S(=O)(=O)N(C)C)cc1NC(=O)CSc1nnc(-c2cccnc2)o1	13.9
Oc1nc(-c2ccc(Cl)cc2)n2ccncc12	10.1
COc1cccc(C2=NN(C(=O)c3cccs3)C(O)(C(F)(F)F)C2)c1 (centres undefined)	1.6
Cc1ccc(/C=C/C(=O)NCCCn2ccnc2)cc1	8.6
O=c1c2ccccc2c(C=Nc2ccccc2O)c(O)n1-c1nccs1	24.7
Cc1ccc(OCCCN2C(=O)C(=O)c3cc(C)ccc32)cc1	6.0
O=[N+]([O-])c1cccc(-c2n[nH]c(=S)n2-c2ccc(Br)cc2)c1	15.8
CCOc1ccc(C(C(=O)NC2CCCCC2)N(C(=O)Cc2cccs2)c2ccc(-n3cnnn3)c(OC)c2)cc1 (centres undefined)	10.3
C=CCn1c(=S)sc2c(=O)[nH]cnc21	24.1
O=C(O)c1cnc(N2CCOCC2)nc1	18.7
COC(=O)[C@H](CCSC)NC(=O)Nc1cccc(C)c1C	27.0
Cc1cccc(OCC(=O)NCC(=O)N/N=C/c2cccnc2)c1	9.1
NNC(=O)c1csc(COc2cc(Cl)cc(Cl)c2)n1	3.1
CCc1ccc(NC(=O)C(CC)c2ccccc2)cc1 (centres undefined)	12.4
Cc1cc(C)nc(NC(=O)Cc2ccc(Br)cc2)n1	10.6
O=c1[nH]c(CN2CCOCC2)nc2ccccc12	13.5
COc1cc(NC(=O)c2cccnc2Sc2ccc(Cl)cc2)cc(OC)c1OC	4.8
Cc1nn(-c2ccccc2)c(N)c1N=Nc1cccnc1	7.2
COc1ccc(C(=O)COc2ccc(F)cc2)c(O)c1C	13.0
Nc1ncc2c(n1)-c1ccccc1CC2	-1.7
O=C(COC(=O)CCc1nc2ccccc2c(=O)[nH]1)Nc1ccc2c(c1)OCO2	13.7
O=C(CNC(=O)c1ccccc1Cl)Nc1ccc(F)cc1	18.1
O=C(Cn1cnc2scc(-c3ccccc3)c2c1=O)NCc1ccco1	18.0
COCCOn1c(SCCOC)nc2ccccc2c1=O	8.8
COc1ccc(C)cc1NC(=O)C1CC(=O)N(CCc2ccccc2)C1 (centres undefined)	11.2
NC(=O)NCCCC(NC(=O)c1ccc(C#CC2(O)CCCCC2)cc1)C(=O)O (centres undefined)	17.1
Cc1onc(-c2c(F)cccc2Cl)c1-c1nnc(-c2cccc3ccccc23)o1	14.0
O=C(Nc1ccc(S(=O)(=O)Nc2nccs2)cc1)c1cccc(S(=O)(=O)N2CCOCC2)c1	14.4
CCOC(=O)C1CCN(C(=O)CSc2ccc(Cl)cc2)CC1	9.4
S=C(NCCc1ccc(Cl)cc1)NC1CCCC1	8.5
CC1=NN(C(=S)Nc2ccccc2)C(C)(C)C1	16.5
